From PubChem
Mtb H37Rv: Mycobacterium tuberculosis H37Rv growth inhibition, cell based, confirmatory dose response (AID 1949) | most inactive calls were filed without a number and no value below 0 was filed | one-dose inhibition, % at 10 µg/mL; IC50 in µg/mL for titrated hits | 100,000 tested, 1.6% active;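 active = confirmed in a dose series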;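 also: bacteria grown 7 days with compound before Alamar blue readout; 0% = untreated bacteria and 100% = reference antibiotic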
Starred values were filed as active, the others as inactive; i = inactive.

structure	Mtb H37Rv
CC(=O)NS(=O)(=O)c1ccc(NC(=O)C2CC(Cl)=CCC2C(=O)O)cc1 (stereo unspecified)	i
Cc1ccc(S(=O)(=O)CCC(=O)OCc2ccc(Cl)cc2)cc1	i
Cc1ccc(NC2CC(=O)N(c3ccccc3Cl)C2=O)cc1 (stereo unspecified)	0.2%
Cc1cc(C(=O)Nc2nc3c(s2)CCCC3)cs1	10.1%
O=C(Cc1ccc(Cl)cc1)Nc1ccc(NC(=O)Cc2ccc(Cl)cc2)cc1	i
COC(=O)CN(C(=S)Nc1ccc(F)cc1)C1CC(=O)N(c2ccc(OC)cc2)C1=O (stereo unspecified)	i
COC(=O)COc1c(Br)cc(C2NC(=S)NC(C)=C2C(=O)NCc2ccccc2)cc1OC (stereo unspecified)	i
CCOC(=O)C1CCN(C(=O)CN(c2cccc3ccccc23)S(C)(=O)=O)CC1	i
CCC1(N(C(C)=O)c2ccc(OC)cc2)C(=O)c2ccccc2C1=O	i
CCOc1cc(CNC2CCCCC2)ccc1OCC(=O)OC	0.0%
COc1ccc(CN2C(=O)C(=O)c3cccc(C)c32)cc1OC	i
O=C(O)c1cccc(N(CCO)CCO)c1	i
O=C(Nc1cccc(C(F)(F)F)c1)Nc1cc(F)c(F)cc1Cl	19.5µg/mL*
COc1ccc(NC(=O)Nc2ccon2)cc1OC	i
O=C1CC(c2ccccc2[N+](=O)[O-])c2cc3c(cc2N1)CCC3 (stereo unspecified)	i
CSc1cccc(NC(=O)CN(Cc2ccc(F)cc2)S(=O)(=O)c2ccccc2)c1	i
Cc1ccc(CN2CCCC(C(=O)N3CCCCC3)C2)cc1 (stereo unspecified)	i
Cc1cc(C)nc(Nc2ccc(N(C)C)cc2)n1	i
Nc1ccc(S(=O)(=O)N2CCCC2)cc1	1.4%
Cc1cc([N+](=O)[O-])ccc1NC(=O)COc1ccc(Br)cc1Cl	i
COC(=O)NC(=S)Nc1ccc(Oc2cccc3cccnc23)cc1	9.4%
COC(=O)c1cc(C(=O)NC(C)c2ccccc2)c(=O)[nH]c1C (stereo unspecified)	i
Cc1cc(Cl)ccc1NC(=O)CC(C)(C)C	i
CCC1(CCC(C)C)C(=O)NC(=O)N=C1O (stereo unspecified)	2.7%
CNS(=O)(=O)c1ccc(NC(=O)c2csc(C)c2)cc1	i
O=C1CCC(c2ccccc2)N1C(=O)COc1ccc(Cl)cc1 (stereo unspecified)	i
COC(=O)c1ccc(COC(=O)CNC(=O)c2ccccc2)cc1	i
C1=CC2CC1CC2CN1CCC(N2CCCC2)CC1 (stereo unspecified)	i
Cc1ccc(C2C(=O)c3ccccc3C2=O)cc1	i
Clc1cc(Br)ccc1OCCN1CCCCC1	i
CCOC(=O)C(Oc1cc2oc(=O)c3c(c2cc1Cl)CCC3)c1ccccc1 (stereo unspecified)	i
O=C(C1CCN(S(=O)(=O)c2ccc(F)cc2)CC1)N1CCN(Cc2ccccc2)CC1	i
CCCOc1ccc(C(=O)Nc2ccc(C)cc2C)cc1	8.9%
O=C(Nc1ccc(C(=O)N2CCOCC2)cc1)c1ccc(F)cc1	i
O=S1(=O)CCC(N(c2ccccc2)S(=O)(=O)c2ccc(Cl)cc2)C1 (stereo unspecified)	i
C=CCOc1ccccc1C1NC(=O)NC(C)=C1C(=O)OCC (stereo unspecified)	i
COc1ccccc1-n1c(C)c(C(C)=O)c2cc(O)ccc21	1.7%
O=C(CNc1ccc(Br)cc1)c1ccccc1	0.0%
CC(=O)CC1(O)C(=O)Nc2ccccc21 (stereo unspecified)	0.1%
O=C(CN(c1ccc(F)cc1)S(=O)(=O)c1ccc2c(c1)OCCO2)Nc1ccc(S(=O)(=O)N2CCOCC2)cc1	i
CSc1ccccc1C(=O)NC(C)c1ccccc1 (stereo unspecified)	i
Cc1ccc(NC(=O)c2csc(-c3ccccc3)c2C)cc1	1.0%
O=C(Oc1ccc2c3c(c(=O)oc2c1)CCCC3)c1ccco1	i
COc1ccc(S(=O)(=O)N2CCCC2)cc1C(C)C	i
CCOc1ccc2nc(NC(=O)c3c(-c4c(Cl)cccc4Cl)noc3C)sc2c1	i
Cc1c(C(N)=O)oc2c1C(O)CC(C)(C)C2 (stereo unspecified)	i
COCC(C)NC(=O)c1cnn2c(C(F)F)cc(-c3ccccc3)nc12 (stereo unspecified)	i
Cc1ccc(S(=O)(=O)Nc2nc(-c3c(F)c(F)c(F)c(F)c3F)cs2)cc1	i
Cc1cc(NC(=O)CSc2nc3c(cc2C#N)CCCCC3)no1	i
COC(=O)c1cccc(NC(=O)C2(c3ccccc3)CCOCC2)c1	i
CCOC(=O)C1=C(O)/C(=C/c2ccc(CC)cc2)SC1=Nc1ccccc1	5.0%
O=c1[nH]c(=S)[nH]c2c1sc1nc(N3CCOCC3)c3c(c12)CCC3	i
C#CCOc1ccc2ccccc2c1CNc1ccc(Br)cc1	37.2%
N#C/C(=C\c1ccc(N2CCOCC2)cc1)c1nc2ncc(Br)cc2[nH]1	i
O=C(Cc1ccccc1)NNc1c2ccccc2nc2ccccc12	i
O=C(NC(=S)Nc1ccccc1N1CCOCC1)c1ccccc1I	6.1%
CCCn1c(O)c(C2=NC(=S)NC2=O)c2ccccc21	i
O=S(=O)(O)c1nc2ccccc2n1Cc1ccccc1Cl	i
O=C(CC(O)(C(F)(F)F)C(F)(F)F)Nc1cccc(F)c1	20.9%
Cc1cc(Br)ccc1OCC(=O)Nc1ccc2c(c1)OCO2	i

Next entries:
structure	Mtb H37Rv
Fc1ccccc1CN1CCN(Cc2ccccc2C(F)(F)F)CC1	5.9%
CNC(=O)CN(c1cc(OC)ccc1OC)S(=O)(=O)c1ccc(OC)c(OC)c1	i
Cc1ccc(-n2c(-c3ccccc3)n[nH]c2=S)cc1	i
Cc1ccc(S(=O)(=O)N(CC(=O)N2CCCCC2)c2cc(C)ccc2C)cc1	i
CC(NC(=O)CSc1nnc(CC(=O)Nc2ccc(Cl)c(Cl)c2)n1C)c1ccccc1 (stereo unspecified)	0.3%
COc1ccc(C(CCN)C(C)C)cc1 (stereo unspecified)	i
O=C(C1CCN(Cc2ccccc2Cl)CC1)N1CCN(Cc2ccccc2)CC1	i
COc1ccc(NC(=O)Nc2cc(C)ccc2OC)cc1	i
Cc1c(Nc2nc3nonc3nc2Nc2ccc(Cl)cc2)c(=O)n(-c2ccccc2)n1C	1.2%
O=C(NCCOc1ccccc1Cl)C1CCCN1S(=O)(=O)c1ccc2ccccc2c1 (stereo unspecified)	i
COc1ccc(C(=O)Nc2ncccc2O)cc1	i
CCOc1ccc2c(c1)[n+]([O-])c(C(=O)OC)c(=O)n2O	0.6%

For convenience, some entries already given:
structure	Mtb H37Rv
Fc1ccccc1CN1CCN(Cc2ccccc2C(F)(F)F)CC1	5.9%
CNC(=O)CN(c1cc(OC)ccc1OC)S(=O)(=O)c1ccc(OC)c(OC)c1	i
Cc1ccc(-n2c(-c3ccccc3)n[nH]c2=S)cc1	i
Cc1ccc(S(=O)(=O)N(CC(=O)N2CCCCC2)c2cc(C)ccc2C)cc1	i
CC(NC(=O)CSc1nnc(CC(=O)Nc2ccc(Cl)c(Cl)c2)n1C)c1ccccc1 (stereo unspecified)	0.3%
COc1ccc(C(CCN)C(C)C)cc1 (stereo unspecified)	i
O=C(C1CCN(Cc2ccccc2Cl)CC1)N1CCN(Cc2ccccc2)CC1	i

(cont.)
structure	Mtb H37Rv
C=C(C)CC1Nc2ccccc2NC1CC(=C)C (stereo unspecified)	3.7%
CSc1cccc(NC(=S)Nc2ccc(Cc3ccncc3)cc2)c1	i
OC(CNC1CCCCC1)CN1CCN(CC(O)CNC2CCCCC2)CC1 (stereo unspecified)	i
Cc1ccc(SC(C)C(=O)Nc2ccncc2)cc1 (stereo unspecified)	i
O=C(O)CC1NC(=O)N(c2ccccc2)C1=O (stereo unspecified)	i
CC1CCc2nc(NC(=O)c3ccc(F)c(F)c3)sc2C1 (stereo unspecified)	i
COc1ccccc1C(=O)NCc1ccccn1	i
Cc1cc(OC(=O)c2ccco2)c2c(C)cc(=O)oc2c1	i
COc1ccc(/C(N)=N/OC(=O)c2cccc3ccccc23)cc1	i
COc1cc(NC(=O)C2=C(C)NC(=O)NC2c2cccc([N+](=O)[O-])c2)c(OC)cc1Cl (stereo unspecified)	1.5%
COc1cc(C=O)ccc1Oc1nc2ccccc2n2nnnc12	1.1%
COc1ccccc1CNC(=O)CCCn1c(=S)[nH]c2ccccc2c1=O	i
Cc1ccccc1NC(=O)c1c(NC(=O)c2ccncc2)sc2c1CCCCC2	i
Cc1cccc(NC(=O)c2sc3cccc(Cl)c3c2Cl)c1	i
CC1=NN(C(=O)c2ccccc2)C(c2ccccc2)C1 (stereo unspecified)	i
O=C(NCc1ccc2c(c1)OCO2)c1ccc(CN2CCOCC2)cc1	i
COCCNC(=O)C1CCN(S(=O)(=O)c2cc(Cl)ccc2Cl)CC1	i
O=C1CCC(=O)N1c1cc(Cl)ccc1Cl	i
O=C(Nc1ccccc1Cl)C(=O)N1CCCCC1	i
O=C(Nc1ccccc1C(=O)N1CCCCCC1)c1ccco1	i
O=C(CS(=O)(=O)Cc1ccccc1)NCc1ccc2c(c1)OCO2	i
COc1ccc2c(c1)c(=O)oc1c(C)c(OCC(=O)N3CC(C)CC(C)C3)ccc12 (stereo unspecified)	2.2%
CC(=O)Oc1cc(C(=O)N(c2ccc(C)cc2)C2C=CS(=O)(=O)C2)cc(OC(C)=O)c1OC(C)=O (stereo unspecified)	i
CCc1ccc(NC(=O)C(C)N(c2ccc(OC)cc2)S(C)(=O)=O)cc1 (stereo unspecified)	i

Shown as labelled records: 3 of the compounds above.
Molecule: COC(=O)c1cc(C(=O)NC(C)c2ccccc2)c(=O)[nH]c1C (stereo unspecified)
  Mtb H37Rv: i

Molecule: Cc1cc(Cl)ccc1NC(=O)CC(C)(C)C
  Mtb H37Rv: i

Molecule: CCC1(CCC(C)C)C(=O)NC(=O)N=C1O (stereo unspecified)
  Mtb H37Rv: 2.7%

Remaining list, next part:
structure	Mtb H37Rv
Cc1cc(C)nc(SCCS(=O)(=O)c2ccc(C(C)(C)C)cc2)n1	0.2%
Cc1ccc2oc(-c3ccc(NC(=O)c4cccc(Br)c4)cc3O)nc2c1	i
CCc1cccc(C)c1NC(=O)CN(c1ccc(OC)c(OC)c1)S(C)(=O)=O	i
COc1ccc(C)cc1NC(=O)CN(c1ccc(F)cc1)S(C)(=O)=O	i
CCOc1ccc(C(=O)Nc2c(C)cc(Br)cc2C)cc1Cl	i
Cc1ccc(NC(=O)CCC2CCCCC2)c(C)c1	i
COc1cccc(C2CC(C(F)(F)F)n3ncc(C(=O)NCc4cccs4)c3N2)c1 (stereo unspecified)	i
COc1ccc2nc(SCC3CC3(Cl)Cl)[nH]c2c1 (stereo unspecified)	1.0%
Cc1cc(OCC(=O)N2CCc3ccccc3C2)cc(C)c1Br	10.4%
CC(C)c1ccc(CSCc2nc3ccccc3[nH]2)cc1	0.9%
Cc1ccccc1NC(=O)c1c(NC(=O)c2ccccc2Cl)sc2c1CCCC2	i
O=C(c1ccccc1)N1CCN(c2c(F)c(F)c(F)c(F)c2F)CC1	4.5%

Continued; it opens with the 2 that closed the last part.
structure	Mtb H37Rv
Cc1ccccc1NC(=O)c1c(NC(=O)c2ccccc2Cl)sc2c1CCCC2	i
O=C(c1ccccc1)N1CCN(c2c(F)c(F)c(F)c(F)c2F)CC1	4.5%
Cc1ccc(NC(=O)CSc2nnc(CNC(=O)c3cccc(Cl)c3)n2C)cc1Cl	i
COc1ccc(Cl)cc1NC(=S)Nc1cc(C)cc(C)n1	i
COCCNC(=O)c1c(NC(=O)COc2ccc(Cl)cc2)sc2c1CCCC2	i
CCN(c1ccc(C(O)(C(=O)OC)C(F)(F)F)cc1)S(=O)(=O)c1cccc([N+](=O)[O-])c1 (stereo unspecified)	i
COCCNC(=O)Cn1cc(C(=O)c2cccs2)c2ccccc21	0.8%
O=C1N=C(N2CCOCC2)S/C1=C1\C(=O)N(Cc2ccc(Cl)cc2)c2ccccc21	i
O=C(O)CCCCCN1C(=O)C(=O)/C(=C(/O)c2ccc([N+](=O)[O-])cc2)C1c1ccccc1F (stereo unspecified)	i
OCc1cc(Cl)ccc1OCc1ccc(F)cc1	0.6%
CCOCCc1nnc(NC(=O)C2c3ccccc3Oc3ccccc32)s1	i
CCOc1ccc(C(=O)Nc2nnc(Cc3ccc(OC)cc3)s2)cc1OCC	0.2%
CC(=O)Nc1ccc(NC(=O)c2ccc(N(Cc3ccccc3Cl)S(C)(=O)=O)cc2)cc1	i
CCCCn1c(NCc2ccccn2)nc2ccccc21	1.7%
Cc1ccc(NC(=O)C2CC(=O)OC23CCOC(C)(C)C3)cc1 (stereo unspecified)	i
CC(C)(C)NC(=O)COc1ccc(Br)cc1C(=O)Nc1ccc(Cl)cc1	i
N#Cc1c(NC(=O)c2cccc(F)c2)sc2c1CCCC2	1.1%
Clc1ccccc1CSc1nnc2c(n1)[nH]c1ccccc12	i
O=C(CCSc1ccccc1)Nc1ccccc1C(=O)O	16.0%
COc1ccc(C=O)cc1OCc1ccc(Cl)cc1	i
CCc1nc2ccccc2n1CC(O)COc1ccc(Br)cc1 (stereo unspecified)	4.11µg/mL*
Cc1nnc(SCC(=O)Nc2ccc(Cl)cn2)s1	i
Cc1ccc2oc(C(=O)Nc3nnc(C)s3)c(C)c2c1	3.8%
CCOc1ccccc1Nc1nc(N)nc(CN2CCCCC2C)n1 (stereo unspecified)	i
CN(C)C(=O)c1ccccc1-c1ccccc1	i
COc1ccc(NC(=S)NCCN2CCOCC2)cc1	i
COc1ccccc1/C=C/C1NC(=O)NC(C)=C1C(=O)OC(C)C (stereo unspecified)	i
CCOc1ccc(C(=O)NC(=S)Nc2nc(-c3ccc(C)cc3)cs2)cc1Br	2.9%

Only part of the results is shown (hit frequency here may not be typical).
